RanGTP-Imp inh = disruptors of Ran-importin-beta complex formation – biochemical, FRET, CFP-Ran, YFP-importin-beta, homogeneous, primary screen; AID 2216; cell-free CFP-Ran/YFP-importin-beta FRET ratio; 1.1% of 300,000 active; inhibition, % (test concentration not listed);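 active = most replicates above 15%; inconclusive = exactly half above 15%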;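 also: 0% = DMSO wells and 100% = Ran loaded with GDP instead of GTP; wells of about 40 µL received 100 nL stock; the first replicate is given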
FGF22 binding = binders of recombinant human FGF22 by thermal shift; SYPRO orange fluorescence; percent of sucrose octasulfate shift, DMSO zero; calls only at 9.99 µM; 1.5% of 340,000 active; AID 651658;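 active = melting point raised past a set limit in the mean and every replicate; inconclusive = no clear call; three in four hits are not shown here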
Vif A3G = HIV-1 Vif–A3G interaction blockers – biochemical, TR-FRET, GST-Vif 1-94, biotin-A3G peptide, dose response retest, primary screen (AID 1117319) | TR-FRET GST-Vif / biotin-A3G peptide binding; higher % means a stronger effect; test concentration not given here; strong numbers were not always called active | 0.57% of 260,000 active | inhibition, %, or IC50 in µM where a hit was titrated;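 active = above the screen mean plus three standard deviations and confirmed in dose response; inconclusive = results disagree or hit not tested in dose response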;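 also: Vif residues 1-94 fused to GST binding biotinylated APOBEC3G peptide 110-148; 0% = full assay without inhibitor and 100% = GST in place of GST-Vif; retest series ran down from 100 µM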
Ecoli growth = inhibitors of Escherichia coli growth | OD600, 23 h; active compounds read low | OD600 absorbance (concentration not given with the values) | 0.21% of 330,000 active;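 active = OD600 absorbance below the run mean of sample wells minus 3.6 SD, in any replicate, cut at about 0.56 in these data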;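 also: stock transfer was 300 nL into about 60 µL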
UCH37 inh = blocks the human deubiquitinase UCH37. inhibition, % (test concentration not listed). 0.33% of 330,000 active. AID 588478. purified proteasome/UCH37, Ub-AMC cleavage fluorescence;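 active = mean of two replicates above 20%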;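 also: 0% = compound-free wells with enzyme and 100% = wells lacking proteasome; stock transfer was 100 nL into about 20 µL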
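Material: human UCH37 enzyme supplied as purified proteasome complex / Amount: 0.15 nM proteasome as dispensed / Buffer or medium: pH 7.4 Tris-HCl (50 mM) with ovalbumin, ATP-MgCl2, DTT / Times: preincubation 30 min, reaction 25 min, room temperature / Technique: AMC fluorescence from Ub-AMC cleavage, excitation 355 nm, emission 460 nm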
HNF4A DNA FP = change in binding of human HNF4 alpha to DNA; AID 1224865; activity change, % at 10 µM; 0.3% of 360,000 active; P41235; HNF4a-FITC DNA binding, fluorescence polarization, 1 h; in the data active = activity change above about 30%, passing the limit was not always enough;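 also: controls were the assay level and a saturating level of protein; the project sought stronger binding though the title names inhibitors; some compounds called inactive have numbers as strong as hits; positive values seem to mean higher polarization but the record does not say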
Target sequence (P41235 whole entry, looked up): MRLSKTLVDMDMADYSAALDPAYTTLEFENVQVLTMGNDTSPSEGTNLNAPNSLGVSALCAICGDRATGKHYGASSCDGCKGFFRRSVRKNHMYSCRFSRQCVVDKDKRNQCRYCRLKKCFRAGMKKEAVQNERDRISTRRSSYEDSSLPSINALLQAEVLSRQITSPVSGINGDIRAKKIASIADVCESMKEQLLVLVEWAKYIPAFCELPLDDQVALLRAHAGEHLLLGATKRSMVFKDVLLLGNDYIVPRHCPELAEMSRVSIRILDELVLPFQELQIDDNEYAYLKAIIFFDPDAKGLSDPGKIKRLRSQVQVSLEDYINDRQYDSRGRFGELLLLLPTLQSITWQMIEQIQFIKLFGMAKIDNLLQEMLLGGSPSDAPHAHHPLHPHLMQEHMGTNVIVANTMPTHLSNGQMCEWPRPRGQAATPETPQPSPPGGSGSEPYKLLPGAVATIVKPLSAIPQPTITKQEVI
AF4-AF9 inh = blocks AF4 peptide binding to human AF9. inhibition, % at 10 µM. AlphaScreen, biotin-AF4 peptide binding to FLAG-AF9. P42568. 0.47% of 350,000 active;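 active = every replicate reaching a set inhibition limit, whatever the replicate mean, cut at about 25% in these data; inconclusive = mean inhibition reaches that limit but some replicates miss it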;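 also: 0% = plate neutral control median and 100% = total signal loss; the record names both 10 and 1 µM as test concentration; the first replicate is given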
Target sequence (P42568 whole entry, looked up): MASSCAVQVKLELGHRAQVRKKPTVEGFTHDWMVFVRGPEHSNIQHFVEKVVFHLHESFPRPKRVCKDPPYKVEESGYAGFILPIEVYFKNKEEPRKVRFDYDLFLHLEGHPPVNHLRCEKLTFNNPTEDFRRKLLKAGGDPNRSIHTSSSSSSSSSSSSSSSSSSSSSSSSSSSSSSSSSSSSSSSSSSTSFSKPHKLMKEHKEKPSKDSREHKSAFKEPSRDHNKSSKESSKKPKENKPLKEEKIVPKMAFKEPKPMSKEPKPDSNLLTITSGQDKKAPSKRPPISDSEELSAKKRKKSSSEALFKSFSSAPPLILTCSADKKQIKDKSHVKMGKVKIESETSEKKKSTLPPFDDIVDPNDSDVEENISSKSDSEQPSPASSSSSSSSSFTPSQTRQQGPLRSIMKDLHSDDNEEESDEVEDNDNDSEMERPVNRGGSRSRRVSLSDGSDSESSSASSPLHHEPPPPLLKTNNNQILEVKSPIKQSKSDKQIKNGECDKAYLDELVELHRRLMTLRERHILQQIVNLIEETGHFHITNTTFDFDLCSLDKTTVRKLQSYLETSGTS
The depositor's hits bear a star; & = joins results of further samples. The list is partial; rates above refer to the full screens.

Results for COc1cc(NC(=S)Nc2ccc(N(C)C(C)=O)cc2)cc(OC)c1 ?
RanGTP-Imp inh: -5.0; FGF22 binding: inactive; Vif A3G: 9%; Ecoli growth: 0.72; UCH37 inh: 3.9; HNF4A DNA FP: -0.6; AF4-AF9 inh: 1.8

What do the screens show for `COc1ccc(-c2oc3ccc(-c4cc(OC)c(OC)c(OC)c4)cc3c2-c2ccc(OC)nc2)cc1`?
RanGTP-Imp inh: 8.7; FGF22 binding: inactive; Ecoli growth: 0.73; UCH37 inh: -21; HNF4A DNA FP: -4.0; AF4-AF9 inh: 3.0

Results for CCNc1nnc(SCC(=O)c2cc(C)n(C3CC3)c2C)s1 ?
FGF22 binding: inactive; Vif A3G: -3%; Ecoli growth: 0.7; UCH37 inh: 3.9; HNF4A DNA FP: 2.1; AF4-AF9 inh: 0.8

How did COC(=O)c1c(C)oc2ccc(OC(=O)c3cccs3)cc12 do in these assays?
RanGTP-Imp inh: -0.5; Vif A3G: -7%; Ecoli growth: 0.74; UCH37 inh: -2.0; HNF4A DNA FP: -5.9

What do the screens show for `CCN(Cc1ccncc1)Cc1cn[nH]c1-c1cc(OC)c(OC)c(OC)c1`?
RanGTP-Imp inh: -0.9; FGF22 binding: inactive; Vif A3G: 9%; Ecoli growth: 0.66; UCH37 inh: -0.4; HNF4A DNA FP: 3.4; AF4-AF9 inh: 0.8

What do the screens show for `CCCC1=NN(c2ccc([N+](=O)[O-])cc2)C(=O)/C1=C/N(C)C`?
RanGTP-Imp inh: -2.5; FGF22 binding: inactive; Ecoli growth: 0.61; UCH37 inh: 11; HNF4A DNA FP: -0.1; AF4-AF9 inh: 2.2

How did N#Cc1cccc(NC(=O)COC(=O)c2cc(S(=O)(=O)Nc3ccccc3Cl)ccc2O)c1 do in these assays?
FGF22 binding: inactive; Vif A3G: -2%; Ecoli growth: 0.67; UCH37 inh: -0.6; HNF4A DNA FP: 4.7; AF4-AF9 inh: -0.7

What do the screens show for `COC(=O)Cn1c(CN2CCN(C(=O)c3ccco3)CC2)nc2c1c(=O)n(C)c(=O)n2C`?
RanGTP-Imp inh: 2.6; FGF22 binding: inactive; Ecoli growth: 0.67; UCH37 inh: 0.1; HNF4A DNA FP: -3.2; AF4-AF9 inh: -2.5

How did CCOC(=O)N1CCN(C(=O)CN2C(=O)NC(C)(c3ccc4ccccc4c3)C2=O)CC1 (stereo not given) do in these assays?
FGF22 binding: inactive; Vif A3G: -11%; Ecoli growth: 0.7; UCH37 inh: 1.9; HNF4A DNA FP: -1.2; AF4-AF9 inh: -7.1

What do the screens show for `CN(CC(=O)Nc1ccc(Cl)cc1)CC(=O)Nc1ccc(F)c(F)c1F`?
RanGTP-Imp inh: 2.7; Ecoli growth: 0.65; UCH37 inh: -0.1; HNF4A DNA FP: 2.2

How did COc1cccc(OCC(O)CN2CCN(c3ccc(Cl)cc3)CC2)c1 (stereo not given) do in these assays?
RanGTP-Imp inh: inconclusive; FGF22 binding: inactive; Vif A3G: 2%; Ecoli growth: 0.58; UCH37 inh: 6.2; HNF4A DNA FP: 1.6; AF4-AF9 inh: 1.6

What do the screens show for `CCC(=O)c1ccc(OCC(=O)NC2CCN(Cc3ccccc3)CC2)cc1`?
FGF22 binding: inactive; Ecoli growth: 0.69; UCH37 inh: 3.3; HNF4A DNA FP: 0.1; AF4-AF9 inh: 0.4

Results for CC(=O)NC1(C(F)(F)F)C(=O)Nc2c1c(=O)[nH]c(=O)n2CC(C)C (stereo not given) ?
RanGTP-Imp inh: 3.7; FGF22 binding: inactive; Vif A3G: -2%; Ecoli growth: 0.72; UCH37 inh: 3.1; HNF4A DNA FP: 0.0; AF4-AF9 inh: -0.1

How did Cc1cccc(CSC2=NN3CCCC(=O)N=C3S2)c1 do in these assays?
RanGTP-Imp inh: 1.1; FGF22 binding: inactive; Vif A3G: 1%; Ecoli growth: 0.77; UCH37 inh: 0.2; HNF4A DNA FP: -4.2; AF4-AF9 inh: -2.5

What do the screens show for `Oc1ccc(Cl)cc1CNn1cnnc1`?
RanGTP-Imp inh: 1.9; FGF22 binding: inactive; Vif A3G: 5%; Ecoli growth: 0.66; UCH37 inh: 0.7; HNF4A DNA FP: -0.9; AF4-AF9 inh: -1.1

How did NC(=NCCc1c[nH]c2ccccc12)NC(=O)c1ccc(F)cc1 do in these assays?
RanGTP-Imp inh: -0.7; FGF22 binding: inactive; Vif A3G: 16%; Ecoli growth: 0.59; UCH37 inh: 5.2; HNF4A DNA FP: -1.8; AF4-AF9 inh: 20

What do the screens show for `COc1ccc(C)cc1-n1ccn(CC(=O)Nc2ccc(Br)cc2F)c(=O)c1=O`?
RanGTP-Imp inh: 0.2; FGF22 binding: inactive; Vif A3G: -8%; Ecoli growth: 0.68; UCH37 inh: -24; HNF4A DNA FP: -0.2; AF4-AF9 inh: -15

Results for CC(CCc1ccccc1)NS(=O)(=O)c1ccccc1 (stereo not given) ?
RanGTP-Imp inh: 2.7; Vif A3G: 1%; Ecoli growth: 0.72; UCH37 inh: -0.1; HNF4A DNA FP: -3.2

How did CC(Nc1cccnc1)=C(C#N)C#N do in these assays?
RanGTP-Imp inh: -4.0; FGF22 binding: inactive; Vif A3G: 7%; Ecoli growth: 0.68; UCH37 inh: -1.1; HNF4A DNA FP: -1.6; AF4-AF9 inh: -2.6

Results for CN(Cc1ccc(Cl)s1)C(=O)CCl ?
RanGTP-Imp inh: -0.5; FGF22 binding: inactive; Vif A3G: 12%; Ecoli growth: 0.66; UCH37 inh: 4.5; HNF4A DNA FP: -3.8; AF4-AF9 inh: 0.8

How did Cc1cc(=O)oc2cc(OCC(=O)Nc3nnc(C(C)C)s3)ccc12 do in these assays?
RanGTP-Imp inh: 2.7; Vif A3G: 8%; Ecoli growth: 0.71; UCH37 inh: -57; HNF4A DNA FP: -2.2

How did O=C(CCCn1c(SCc2cccc([N+](=O)[O-])c2)nc2ccccc2c1=O)NCC1CCCO1 (stereo not given) do in these assays?
RanGTP-Imp inh: -1.7; FGF22 binding: inactive; Vif A3G: 5%; Ecoli growth: 0.7; UCH37 inh: 1.9; HNF4A DNA FP: 0.6; AF4-AF9 inh: 1.4

What do the screens show for `O=S(=O)(c1cccc(C(F)(F)F)c1)N(CCCN1CCOCC1)Cc1cccs1`?
RanGTP-Imp inh: -1.2&-2.6; FGF22 binding: inactive; Vif A3G: -3%&-4%; Ecoli growth: 0.71&0.75; UCH37 inh: 2.9&1.5; HNF4A DNA FP: -0.7&4.0; AF4-AF9 inh: 1.2

Results for CCOc1ccc(S(=O)(=O)NCCC(=O)N2CCN(Cc3ccccc3)CC2)cc1 ?
RanGTP-Imp inh: -1.0; FGF22 binding: inactive; Vif A3G: -4%; Ecoli growth: 0.74; UCH37 inh: 3.2; HNF4A DNA FP: 0.5; AF4-AF9 inh: -0.9

Entries above with an aryl thioether with sulfur outside any ring (two):
Results for CCNc1nnc(SCC(=O)c2cc(C)n(C3CC3)c2C)s1 ?
FGF22 binding: inactive; Vif A3G: -3%; Ecoli growth: 0.7; UCH37 inh: 3.9; HNF4A DNA FP: 2.1; AF4-AF9 inh: 0.8

How did O=C(CCCn1c(SCc2cccc([N+](=O)[O-])c2)nc2ccccc2c1=O)NCC1CCCO1 (stereo not given) do in these assays?
RanGTP-Imp inh: -1.7; FGF22 binding: inactive; Vif A3G: 5%; Ecoli growth: 0.7; UCH37 inh: 1.9; HNF4A DNA FP: 0.6; AF4-AF9 inh: 1.4

Further compounds:
How did CCOC(=O)c1ccccc1NC(=O)CN(c1ccccc1C)S(C)(=O)=O do in these assays?
RanGTP-Imp inh: -2.0; Vif A3G: -1%; Ecoli growth: 0.69; UCH37 inh: 1.9; HNF4A DNA FP: 2.9

What do the screens show for `Cc1cc(Cl)nc(Cl)c1C(=O)N1CCOCC1`?
RanGTP-Imp inh: 0.8; FGF22 binding: inactive; Vif A3G: -2%; Ecoli growth: 0.72; UCH37 inh: -0.2; HNF4A DNA FP: 2.0; AF4-AF9 inh: -1.2

Results for C=C(C)CSc1nnc(-c2ccc(OC)cc2)n1N ?
RanGTP-Imp inh: 0.2; Vif A3G: -1%; HNF4A DNA FP: 4.4

How did NNC(=O)Cn1nc2n(c1=O)-c1ccccc1SC2 do in these assays?
RanGTP-Imp inh: 0.1; FGF22 binding: inactive; Vif A3G: -7%; Ecoli growth: 0.64; UCH37 inh: 1.5; HNF4A DNA FP: 2.7; AF4-AF9 inh: 3.6

What do the screens show for `CC(Nc1cccc(C(=O)NC2CC2)c1)c1nnc(-c2ccccc2)o1` (stereo not given)?
FGF22 binding: inactive; Vif A3G: -5%; Ecoli growth: 0.66; UCH37 inh: -3.7; HNF4A DNA FP: 2.8; AF4-AF9 inh: -1.6

Results for CCN(CC)c1ccc(NC(=O)CCS(=O)(=O)c2ccc(Br)cc2)c(C)c1 ?
RanGTP-Imp inh: 0.3; FGF22 binding: inactive; Vif A3G: 5.5µM*; Ecoli growth: 0.67; UCH37 inh: 0.6; HNF4A DNA FP: -52; AF4-AF9 inh: -9.2

Results for CCCNC(=O)/C(=C/c1cn(S(=O)(=O)N(C)C)c2ccccc12)NC(=O)c1ccc(OC)cc1 ?
RanGTP-Imp inh: 4.1; FGF22 binding: inactive; Vif A3G: -8%; Ecoli growth: 0.64; UCH37 inh: 1.7; HNF4A DNA FP: -0.7; AF4-AF9 inh: 0.3

Results for c1ccc2c(N3CCOCC3)nc(N3CCOCC3)nc2c1 ?
RanGTP-Imp inh: 2.1; Vif A3G: -9%; Ecoli growth: 0.73; UCH37 inh: -231; HNF4A DNA FP: -0.8

What do the screens show for `Cc1ccc(NC(=O)CCn2cccc2)cc1Cl`?
RanGTP-Imp inh: -0.5; Vif A3G: 14%; Ecoli growth: 0.7; UCH37 inh: 0.3; HNF4A DNA FP: -2.5

How did N#Cc1ccc(C(=O)CSc2n[nH]c(=O)n2Cc2ccco2)cc1 do in these assays?
RanGTP-Imp inh: -0.7; FGF22 binding: inactive; Vif A3G: 11%; Ecoli growth: 0.71; UCH37 inh: 2.2; HNF4A DNA FP: 4.4; AF4-AF9 inh: -1.8

Results for Nc1ccc(CNC(=O)OCC2c3ccccc3-c3ccccc32)cc1 ?
RanGTP-Imp inh: 4.1; FGF22 binding: inactive; Ecoli growth: 0.66; UCH37 inh: 0.3; HNF4A DNA FP: -3.3; AF4-AF9 inh: 1.1

What do the screens show for `CCN(Cc1ccncc1)C(=O)c1cc(COc2ccc(C)c(C)c2)on1`?
RanGTP-Imp inh: 3.6; FGF22 binding: inactive; Vif A3G: -5%; Ecoli growth: 0.69; UCH37 inh: 0.5; HNF4A DNA FP: 0.9; AF4-AF9 inh: 0.2

What do the screens show for `COc1ccc(-c2[nH]c(-c3cccc(OC)c3)nc2SCC(=O)NC2CCCC2)cc1`?
RanGTP-Imp inh: 4.3; FGF22 binding: inactive; Vif A3G: -2%; Ecoli growth: 0.69; UCH37 inh: -20; HNF4A DNA FP: -4.9; AF4-AF9 inh: 11

How did COc1ccc(CCC(=O)N(C)CC(=O)Nc2cc(C)ccc2C)cc1 do in these assays?
RanGTP-Imp inh: 3.8; FGF22 binding: inactive; Vif A3G: -1%; Ecoli growth: 0.68; UCH37 inh: -1.0; HNF4A DNA FP: 1.3; AF4-AF9 inh: -1.1

What do the screens show for `CN(CC(=O)Nc1ccc(F)cc1)C(=O)C1CCCC1`?
FGF22 binding: inactive; Vif A3G: -2%; Ecoli growth: 0.7; UCH37 inh: 1.2; HNF4A DNA FP: -0.7; AF4-AF9 inh: 1.9

What do the screens show for `COc1ccc(NC(=O)c2ccc3c(=O)n4c(nc3c2)CCCCC4)cc1`?
RanGTP-Imp inh: -0.2; FGF22 binding: inactive; Ecoli growth: 0.68; UCH37 inh: 1.2; HNF4A DNA FP: -0.8; AF4-AF9 inh: 2.6

Screening data as filed in PubChem.
